# Vaccinia mCherry = inhibitors of vaccinia virus infection (mCherry reporter signal) | Potency, µM (series often up to 36.5 µM), inactives show at the highest dose activity change, negative = inhibition, hits mostly inhibitors | actives 0.63% (n = 310,000) | Vaccinia virus mCherry reporter infection, fluorescence; about a quarter of the inactives have no number; active = well fitted inhibition curve with a large enough effect; inconclusive = small, poorly fitted or top-dose-only effect; inactive = no such curve, though single readings can be large or run the other way; tested in A549 cells; note: nearly all actives have a fitted effect of over 35% in size; inactives centre near -10
# Vaccinia Venus = vaccinia inhibition (Venus reporter) | Vaccinia virus Venus reporter expression, fluorescence | Potency, µM (highest dose often 36.5 µM), for the others: top-dose activity change, negative = inhibition, hits mostly inhibitors | actives 0.46% (n = 330,000); active means well fitted inhibition curve with a large enough effect; inconclusive means small, poorly fitted or top-dose-only effect; inactive means no such curve, though single readings can be large or run the other way; tested in A549 cells; note: nearly all actives have a fitted effect of over 30% in size; inactives centre near -10
# Starred values were filed as active, the others as inactive; i = inactive; ? = inconclusive; / = not tested or not shown; & = joins results of further samples; [ ] = remark or other dose. % is set by controls: 0 for no effect and ±100 for the full control effect; potency is the fitted concentration of half-maximal effect.
Compound,Vaccinia mCherry,Vaccinia Venus
O=C(NN1C(=O)NC2(CCCCC2)C1=O)c1cc(F)cc(F)c1,-8.1%,-4.5%
O=C(COC(=O)[C@H](Cc1c[nH]c2ccccc12)NC(=O)c1cccs1)NCc1ccccc1,i,-10.9%
Cc1ccc(NC(=O)CSc2nnc(CNC(=O)c3c(F)cccc3Cl)o2)cc1,i,-12.7%
CCN(CC)c1ccc(/C=N/NC(=O)CNC(=O)c2ccc3c(c2)OCCO3)cc1,-18.7%,2.4%
CCN1C[C@@H]2[C@@H]3C(=O)N(C)C(=O)[C@@H]3[C@](CC)(C1=O)N2C(=O)c1ccc(F)cc1,i,-4.8%
Cc1ccc(Cl)cc1NC(=S)N(CCCN1CCOCC1)Cc1ccccn1,-9.6%,-9.6%
O=C(COc1ccc(S(=O)(=O)N2CCOCC2)cc1Cl)NC1CC1,-13.8%,-10.5%
CCOC(=O)N1CCC(NC(=O)C2CCN(S(=O)(=O)c3ccc4c(c3)oc(=O)n4C)CC2)CC1,i,-13.3%
COc1ccc2c(c1)c1c(c(=O)n(-c3ccc(C)cc3)c(=O)n1CC(=O)c1ccc(Cl)cc1)n2C,-20.4%,-13.5%
COc1ccc(NC(=O)c2ccc3c(c2)nnn3C2CCCC2)cc1Cl,-9.8%,-16.2%
Cc1cccc(N2CCN(C3=NC(=O)C(Cc4ccccc4)S3)CC2)c1 (centres undefined),i,-8.6%
Cc1ccccc1CCNC(=O)C1CCN(S(=O)(=O)c2ccc(-n3cnnn3)cc2)CC1,-12.5%,-3.6%
CCC(Cn1nnc2ccccc2c1=O)NC(=O)Nc1cc(Cl)ccc1OC (centres undefined),-5.6%,-4.0%
CCOc1ccc(NS(=O)(=O)c2ccc3[nH]c4c(c3c2)CCCC4)cc1,-20.2%,-14.3%
CS(=O)(=O)c1oc(-c2ccc(F)cc2)nc1S(=O)(=O)c1ccc(Cl)cc1,?,?
Cc1ccc(CCSc2ccc(C(C)C)cc2)cn1,-20.0%,-19.0%

# Part of the list above in order of SMILES length, highest first.
Compound,Vaccinia mCherry,Vaccinia Venus
COc1ccc2c(c1)c1c(c(=O)n(-c3ccc(C)cc3)c(=O)n1CC(=O)c1ccc(Cl)cc1)n2C,-20.4%,-13.5%
Cc1cccc(N2CCN(C3=NC(=O)C(Cc4ccccc4)S3)CC2)c1 (centres undefined),i,-8.6%
Cc1ccc(CCSc2ccc(C(C)C)cc2)cn1,-20.0%,-19.0%

# (continued)
Compound,Vaccinia mCherry,Vaccinia Venus
Cc1cc2cc3c(cc2nc1SCc1ccccn1)OCCO3,i,1.4%
Cc1cc(C(=O)COC(=O)c2ccc(Br)o2)c(C)n1C,0.9%,-3.5%
CCOc1ccc(NC(=O)C2CCN(S(=O)(=O)c3c(C)n[nH]c3C)CC2)cc1,/,-9.1%
CC1CCCC(n2cnc3cc(C(=O)O)ccc32)C1C (centres undefined),-5.2%,0.2%
COc1ccc(Cl)cc1NC(=O)CCS(=O)(=O)c1ccc(C)cc1,-16.2%,-7.6%
CC(Oc1ccc(Cl)cc1C(N)=O)C(=O)N1CCc2ccccc21 (centres undefined),i,-7.1%
CC(C)CC(c1nnnn1C1CCCCC1)N1CCN(C(=O)c2ccco2)CC1 (centres undefined),-2.2%,-8.5%
O=C(Nc1ccc2c(c1)OCCO2)C1c2ccccc2OCC(=O)N1C1CC1 (centres undefined),49.4%[activator],10.5%
C[C@H](CO)N1C[C@H](C)[C@@H](CN(C)S(=O)(=O)c2cccs2)Oc2ccc(NC(=O)CCC(F)(F)F)cc2C1=O,i,-19.9%
NC(=O)c1ccccc1OCC(=O)N1CCCc2ccccc21,-1.0%,-1.9%
CC[C@H](C)C(C(=O)N1CCN(C(=O)OC(C)(C)C)CC1)n1cc(C(Cc2ccc(O)cc2)NC(=O)OC(C)(C)C)nn1 (some centres undefined),?,-24.7%
CC(C)c1ccc(OCC(=O)Nc2ccncc2)cc1,i,-4.5%
c1ccc2oc(-c3ccn[nH]3)cc2c1,i,-0.4%
COc1ccc(Cn2c(C(=O)O)c(CNC3CCCC3)c3ccc(OC)cc32)cc1,6.1%,-4.9%
CSc1cccc(NC(=S)N2CCCN(Cc3cccc(Cl)c3)C2)c1,-7.1%,-17.1%
O=C(COc1ccccc1)Nc1ccc(OCc2cc(=O)n3ccsc3n2)cc1,-1.0%,4.0%
Cc1noc(C)c1S(=O)(=O)N(C)C[C@H]1Oc2c(NC(=O)Nc3ccc(C(F)(F)F)cc3)cccc2C(=O)N([C@H](C)CO)C[C@@H]1C,-30.1%,?
NC(=O)C1CCN(c2nc3ccccc3nc2NS(=O)(=O)c2ccc(Br)cc2)CC1,-11.6%,-9.8%
COc1ccc(NC(=O)C2(C)CCCN(C(C)C)C2)cc1F (centres undefined),-14.0%,-3.2%
COc1ccccc1Cn1c(=S)[nH]c2cc(C(=O)N3CCCC(C)C3)ccc2c1=O (centres undefined),i,-24.7%
O=C(COc1ccc2c(c1)OCO2)Nc1nnc(Cc2ccccc2)s1,?,-6.4%
Oc1ccc(Cl)cc1C=NCCc1ccccc1,i,-4.5%
COc1ccc(CCNC(=O)CSc2nc3cc(Cl)ccc3o2)cc1OC,/,-24.2%
Cc1c(C)n(Cc2ccc(F)cc2)c2ccc(C(=O)Nc3ccc(Cl)cc3)cc12,-22.9%,-26.4%
CSCCC(NC(=O)c1ccco1)C(=O)N(C)CC(=O)Nc1ccccc1Br (centres undefined),-9.0%,-7.5%
O=C(CN(C(=O)C1CSC(=O)C1)c1cccc(F)c1)NCc1ccc2c(c1)OCO2 (centres undefined),-3.3%,-11.8%
Oc1ccc(C[C@H]2CNC(=S)N2CC2CCCN2C[C@H](Cc2ccc(O)cc2)N2C[C@H](Cc3ccc(O)cc3)N(CC3CCCCCC3)C2=S)cc1 (some centres undefined),?,?
COc1ccc(Oc2cn[nH]c2-c2ccc(O)cc2O)cc1,/,-20.9%
CC(=O)Nc1cccc(NC(=O)CSc2cn(CC(=O)N3CCCC3)c3ccccc23)c1,-16.6%,-12.5%
COc1cccc(OC)c1C(=O)OCC(=O)Nc1cccnc1Cl,-0.8%,-14.3%
COC(=O)C1N[C@@H]([C@@H](NC(=O)COc2ccccc2)C(=O)Nc2ccc(OC)cc2)SC1(C)C (some centres undefined),i,-4.6%&-8.9%
COc1ccc(C(=O)ON=C2c3ccccc3-c3ccccc32)cc1OC,-14.7%,-3.8%
COc1ccc(NC(=O)Cn2nc(C)c3c(C)n(-c4ccccc4)nc3c2=O)cc1OC,-9.6%,-3.6%
COc1ccc2c(c1)C(=O)N1[C@H]3c4cc(Br)ccc4OC[C@@H]3[C@H](c3ccccc3)[C@]1(C)C(=O)N2,-18.0%,?
O=C(c1cc([N+](=O)[O-])cc([N+](=O)[O-])c1)N1CCOCC1,i,-1.1%
COc1ccc(N2CCN(c3cc(C)nc4nncn34)CC2)cc1,-25.2%,-28.8%
Cc1ccc(C(=O)Nc2ccccc2C(=O)NC(Cc2c[nH]c3ccccc23)C(=O)O)cc1 (centres undefined),?,6.0%
CCn1c(CC(=O)Nc2ccc(C)cc2)n[nH]c1=S,-17.1%,-2.3%
CCOC(=O)N/N=C\c1sccc1C,-10.7%,-5.3%
COc1cc(C(=S)N2CCCC2)cc(OC)c1OS(=O)(=O)c1ccc(NC(C)=O)cc1,-27.6%,-20.7%
OC1CCN(CC(O)C(F)(F)F)CC1 (centres undefined),-14.8%,-12.6%
Cc1ccc(CNC(=O)CN2C(=O)C3(SCC(=O)N3c3ccc(F)c(F)c3)c3ccccc32)cc1 (centres undefined),-3.2%,-4.6%
C#CCN1C(=O)C(O)(CC(=O)/C=C/c2ccco2)c2ccccc21 (centres undefined),i,3.9%
O=C(CC(=O)N1CCN(c2ccccn2)CC1)Nc1ccc2nc3n(c(=O)c2c1)CCCCC3,-2.1%,-21.1%
O=C1NCc2c1c1c3ccccc3[nH]c1c1[nH]c3ccccc3c21,?,?
COc1cc([N+](=O)[O-])c2nccnc2c1,-5.7%,-18.3%
COc1ccc(CCNC(=O)C2CCN(Cc3nc(-c4cccc(Cl)c4)oc3C)CC2)cc1OC,i,-17.6%
COc1ccc(NC(=S)NCC(c2cccnc2)N2CCOCC2)cc1 (centres undefined),i,-14.5%
O=C(CCCn1c(=O)c2sccc2n(Cc2ccc(Cl)cc2)c1=O)NCc1ccc2c(c1)OCO2,-15.0%,-14.6%
COc1ccc(N2CC(C(=O)Nc3nnc(SCc4cccnc4)s3)CC2=O)cc1 (centres undefined),i,-9.3%
c1ccc(Nc2nc(NCc3ccco3)c3ccccc3n2)cc1,i,?
NNC(=O)CC1NCCN(Cc2ccccc2)C1=O (centres undefined),-11.6%,-0.7%
COc1cc(OC)c(OC)cc1/C=N/NC(=O)c1ccc2nc[nH]c2c1,-10.6%,2.3%
O=C(O)C1C2C=CC3(O2)C1C(=O)N1c2ccccc2C2OCCC2C13 (centres undefined),-1.7%,-10.9%
CC(=O)c1c(C)[nH]c(C(=O)OCC(=O)NNC(=O)c2ccc([N+](=O)[O-])cc2)c1C,i,-3.7%
Cc1ccc(NC(=O)C2=C(C(=O)O)CCCC2)cc1F,i,-2.9%

# In the list so far, 7 contain an aryl thioether with sulfur outside any ring.
Compound,Vaccinia mCherry,Vaccinia Venus
Cc1ccc(NC(=O)CSc2nnc(CNC(=O)c3c(F)cccc3Cl)o2)cc1,i,-12.7%
Cc1ccc(CCSc2ccc(C(C)C)cc2)cn1,-20.0%,-19.0%
Cc1cc2cc3c(cc2nc1SCc1ccccn1)OCCO3,i,1.4%
CSc1cccc(NC(=S)N2CCCN(Cc3cccc(Cl)c3)C2)c1,-7.1%,-17.1%
COc1ccc(CCNC(=O)CSc2nc3cc(Cl)ccc3o2)cc1OC,/,-24.2%
CC(=O)Nc1cccc(NC(=O)CSc2cn(CC(=O)N3CCCC3)c3ccccc23)c1,-16.6%,-12.5%
COc1ccc(N2CC(C(=O)Nc3nnc(SCc4cccnc4)s3)CC2=O)cc1 (centres undefined),i,-9.3%

# (further entries)
Compound,Vaccinia mCherry,Vaccinia Venus
CCCCc1cc(=O)oc2c(C)c(OCC(=O)N3CCCC3)ccc12,-18.7%,?
CCC(Sc1nc2c(sc3ccccc32)c(=O)n1CCc1ccc(OC)c(OC)c1)C(=O)N(CC)CC (centres undefined),?,-24.7%
O=C(CCn1c(=O)oc2ccccc21)N1CCN(C(c2ccccc2)c2ccccc2)CC1,-13.8%,-7.5%
CCOC(=O)N1CCN(Cc2nc3cc(NC(=O)c4ccccc4Cl)ccc3n2C(C)C)CC1,-16.9%,?
Cc1cccc(CS(=O)(=O)Cc2ccc(C(=O)NCCCN3CCOCC3)o2)c1,-6.2%,-5.5%
Cc1cccc(-n2ncc3c2CCCC3NC(=O)c2cccs2)c1C (centres undefined),?,-24.6%
COc1ccc(/C=C2\CCOC2=O)cc1,-16.1%,-12.1%
CCOCc1cc(C)[nH]c(=O)c1C#N,/,-4.4%
Cc1nn(-c2ccccc2)c(Cl)c1CN(C(=O)CCl)c1ccc(Cl)cc1,-1.0%,-23.8%
O=S(=O)(c1cccc(C(F)(F)F)c1)N1c2ccccc2-n2cccc2C1c1cccnc1 (centres undefined),?,?
CCOc1ccc(C(=O)NCc2ccc3c(c2)CCN3C(=O)c2ccc(C)cc2)cc1OCC,-9.9%,-24.3%
O=C(NC(Cc1ccccc1)C(=O)O)OCc1ccccc1 (centres undefined),i,-9.2%
CCn1c(=O)c2c(nc3n2CCCN3c2cccc(C)c2)n(C)c1=O,6.8%[7.34 µM],-0.6%[7.34 µM]
CCn1c(Cn2nnc(-c3ccccc3)n2)nnc1SCC(=O)Nc1ccc(N(C)C)cc1,-12.5%,-17.4%
CCCCN1CCCCC1(C)C(=O)NCc1cccs1 (centres undefined),-11.6%,-6.1%
O=S(=O)(Cc1ccc(Cl)cc1)c1ncc(CO)n1Cc1ccccc1,-4.2%,-14.7%
CC(=O)c1cccc(N(CC(=O)Nc2ccc(S(=O)(=O)N3CCOCC3)cc2)S(C)(=O)=O)c1,-17.2%,-15.9%
CCOC(=O)c1c(C)n(-c2ccc(C)cc2)c2c(CC(C)=O)c(Br)c(OC)c(O)c12,/,-4.5%
O=C(NN1C(=O)c2ccccc2NC1c1ccccn1)c1ccc([N+](=O)[O-])cc1 (centres undefined),i,-11.1%
CN(C)c1cccc(CNC(=O)c2ccc3sc([C@H]4C[C@H](O)[C@@H](CO)O4)nc3c2)c1,33.7%[activator],6.1%
COc1ccccc1NS(=O)(=O)c1cccc(C(=O)NNC(=O)C(NC(N)=O)C(C)C)c1 (centres undefined),-8.0%,-11.1%
Cc1sc2ncnc(OCc3nnc(-c4cccs4)o3)c2c1C,-4.5%,-7.6%
O=S(=O)(Oc1ccccc1C(=S)N1CCOCC1)c1ccc(Cl)cc1,i,-7.7%
O=C(CSc1nnc(-c2cccs2)o1)NCc1ccco1,i,-16.0%
COc1ccc(OC)c(CNc2nc3ccc(C)cc3n3nnnc23)c1,-4.6%,-2.5%
CCCCCn1c(=O)[nH]c2cc(C(=O)Nc3ccc(F)c(F)c3)ccc2c1=O,-5.1%,2.2%
CC(OC(=O)CNC(=O)c1cccs1)C(=O)Nc1ccc(S(N)(=O)=O)cc1 (centres undefined),-13.6%,-12.0%

# Compound activity deposited in PubChem by National Center for Advancing Translational Sciences (NCATS).
